HIV Env fusion: blocks HIV Env-driven cell-cell fusion. AID 651610. actives 1.1% (n = 360,000). HeLa-JRFL Env/CEM21 cell fusion, luciferase. inhibition, % at 12.3 µM;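 active = mean replicate inhibition score of at least 50 and every replicate individually at or above 50; inconclusive = only one of the two criteria met; inactive = mean below 50 and not all replicates reaching 50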;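 note: 0% = plate neutral controls and 100% = maraviroc near 300 nM; one replicate is shown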
Numbers without * were called inactive; u = inconclusive; [ ] = another dose, or the depositor's remark. The list is partial; rates above refer to the full screens.

| HIV Env fusion | compound |
| --- | --- |
| -1[16.7 µM] | COCC(=O)Nc1ccc2c(c1)C(=O)N(C)[C@H]1CC[C@H](CC(=O)N3CCc4ccccc4C3)O[C@H]1CO2 |
| 13[16.7 µM] | COCC(=O)N(C)C[C@@H]1Oc2cc(C#Cc3cccnc3)ccc2S(=O)(=O)N([C@@H](C)CO)C[C@H]1C |
| 16[16.7 µM] | COc1cccc(NC(=O)Nc2ccc3c(c2)C(=O)N(C)[C@H]2CC[C@H](CC(=O)NCCc4ccccc4)O[C@@H]2CO3)c1 |
| -1[16.7 µM] | CO[C@H]1CN(C)C(=O)c2cc(NS(C)(=O)=O)ccc2OC[C@H](C)N(C(=O)C2CCOCC2)C[C@@H]1C |
| 7[16.7 µM] | CCC(=O)N1Cc2cc(C(=O)N(C)C)nc(-c3cccc(-c4cncnc4)c3)c2[C@H]1CCO |
| -34 | COc1ccc(C(=O)CC2(O)C(=O)N(CN3CCOCC3)c3ccc(Br)cc32)cc1 (stereo not given) |
| 12[16.7 µM] | C[C@@H]1CN([C@@H](C)CO)C(=O)c2cc(NC(=O)c3ccncc3)ccc2O[C@@H](C)CCCCO[C@@H]1CN(C)Cc1ccccc1 |
| -1[16.7 µM] | O=C(C[C@@H]1CC[C@@H](NC(=O)CN2CCOCC2)[C@H](CO)O1)NCc1cccc(F)c1 |
| 6[16.7 µM] | COc1ccc(CNC(=O)c2cc3c(c(-c4cccc(-c5cccc(C#N)c5)c4)n2)[C@H](CCO)N([S@@](=O)C(C)(C)C)C3)cc1 |
| -14[16.7 µM] | Cc1ccc(S(=O)(=O)N[C@@H]2C=C[C@H](CC(=O)NCCN3CCCCC3)O[C@H]2CO)cc1 |
| -6[16.7 µM] | COc1ccc(C[C@H]2CCc3cnnn3COC[C@@H](C(C)C)NC2=O)cc1 |
| -11[16.7 µM] | CO[C@H]1CN(C)C(=O)c2ccc(NC(=O)C3CC3)cc2OC[C@@H](C)N(C(=O)c2ccccn2)C[C@H]1C |
| -29 | COCCCNC(=O)C[C@H]1C[C@@]2(C(=O)OC)C(=C[C@H](C(C)(C)C)O[C@@H]2C)N(CCc2ccc(OC)c(OC)c2)C1=O |
| 12[16.7 µM] | C[C@@H]1CN([C@@H](C)CO)C(=O)c2cc(NS(=O)(=O)c3cn(C)cn3)ccc2O[C@@H](C)CCCCO[C@@H]1CN(C)C |
| -7[16.7 µM] | COc1ccc(NC(=O)N(C)C[C@H]2Oc3c(NC(=O)NC4CCCCC4)cccc3C(=O)N([C@H](C)CO)C[C@H]2C)cc1 |
| 16[16.7 µM] | O=C(C[C@H]1CC[C@@H]2[C@H](COC[C@@H](O)CN2Cc2ccc(Oc3ccccc3)cc2)O1)N1CCN(c2ccccc2)CC1 |
| -5[16.7 µM] | C/C=C/c1cnc2c(c1)C(=O)N([C@H](C)CO)C[C@H](C)[C@@H](CN(C)C(=O)c1cccc(F)c1)O2 |
| -19 | O=C(NCCc1ccccc1Cl)[C@@H]1CCCN1C(=O)[C@@H](NC(=O)N1CCOCC1)c1ccccc1 |
| 11 | O=Nc1ccc(Cl)cn1 |
| 1[16.7 µM] | CN(C)CC(=O)Nc1ccc2c(c1)[C@@H]1C[C@H](CC(=O)NCc3cc(F)ccc3F)O[C@H](CO)[C@@H]1O2 |
| 7 | COc1ccc(S(=O)(=O)N2CCCc3nc(C)c(C)cc32)cc1 |
| -5 | COc1ccc2cc(C(=O)CS(=O)(=O)c3ccc(Cl)cc3)c(=O)oc2c1 |
| -13[16.7 µM] | CO[C@H]1CC[C@H]2CCN(C)C(=O)[C@@H](C)N(C)C(=O)c3cc(C#N)ccc3OC[C@H]1O2 |
| 0[16.7 µM] | C[C@@H](NC(=O)C[C@@H]1C[C@H]2c3cc(NC(=O)C4CCOCC4)ccc3O[C@H]2[C@H](CO)O1)c1ccccc1 |
| 6[16.7 µM] | O=C(NCc1ccc(F)cc1)[C@H]1[C@H](CO)[C@H]2Cn3c(cccc3=O)[C@H]2N1C(=O)c1cccnc1 |
| 40[16.7 µM] | Cc1ccc(S(=O)(=O)N[C@H]2CC[C@H](CCNC(=O)c3ccccc3F)O[C@H]2CO)cc1 |
| 0[16.7 µM] | CO[C@H]1CN(C)C(=O)c2cc(NC(=O)Nc3c(C)noc3C)ccc2OC[C@H](C)N(CCC(F)(F)F)C[C@H]1C |
| 0[16.7 µM] | C[C@@H](NC(=O)[C@H]1N[C@H]2c3ccc(C4=CCCC4)c(=O)n3C[C@H]2[C@@H]1CO)c1ccccc1 |
| 10[16.7 µM] | C[C@@H]1CN([C@@H](C)CO)C(=O)c2ccccc2-c2ccccc2CO[C@H]1CN(C)C(=O)c1ccc(F)cc1 |
| 4[16.7 µM] | CC(C)NC(=O)N(C)C[C@@H]1OCCCC[C@H](C)Oc2ccc(NC(=O)CCCN(C)C)cc2C(=O)N([C@@H](C)CO)C[C@H]1C |
| 1[16.7 µM] | CC(C)NC(=O)N(C)C[C@H]1OCCCC[C@@H](C)Oc2ccc(N(C)C)cc2C(=O)N([C@@H](C)CO)C[C@@H]1C |
| 9[16.7 µM] | COc1ccc2c3c([nH]c2c1)[C@@H](CO)N(C(=O)C1CC1)CC31CCN(C)CC1 |
| 0[16.7 µM] | CCCNC(=O)N1CC2(CCN(S(=O)(=O)c3ccc(OC)cc3)CC2)c2c(n(C)c3cc(OC)ccc23)[C@H]1CO |
| -3[16.7 µM] | C[C@@H]1CN([C@@H](C)CO)C(=O)c2cc(C3=CCCC3)cnc2O[C@@H]1CN(C)C(=O)C1CC1 |
| 4 | Cc1ccc2nc(CN(C)C(=O)[C@H]3O[C@@H](n4cnc(C(N)=O)n4)[C@H](O)[C@@H]3O)[nH]c2c1 |
| 39[16.7 µM] | CC(C)C#Cc1ccc2c(c1)O[C@H](CN(C)C(=O)C1CCC1)[C@H](C)CN([C@H](C)CO)S2(=O)=O |
| -2[16.7 µM] | Cc1ccc(S(=O)(=O)Nc2ccc3c(c2)C(=O)N([C@@H](C)CO)C[C@H](C)[C@H](CN(C)Cc2ccc(Oc4ccccc4)cc2)O3)cc1 |
| 32[16.7 µM] | C[C@H]1CCCCO[C@H](CN(C)Cc2ccc(Cl)c(Cl)c2)[C@@H](C)CN([C@@H](C)CO)C(=O)c2cc(N(C)C)ccc2O1 |
| 19[16.7 µM] | Cc1cccc(S(=O)(=O)N2C[C@H](O)COC[C@@H]3O[C@@H](CC(=O)Nc4ccc(-c5ccccc5)cc4)CC[C@H]32)c1 |
| 5[16.7 µM] | CCCNC(=O)N1C[C@@H](C)[C@@H](OC)CN(C)C(=O)c2ccc(NC(=O)CC)cc2OC[C@@H]1C |
| u | CCCC(=O)Nc1ccc2c(c1)OC[C@H](C)N(C(=O)CN(C)C)C[C@H](C)[C@H](OC)CN(C)C2=O |
| -11[16.7 µM] | Cc1noc(C)c1NC(=O)N(C)C[C@@H]1Oc2ccc(NC(=O)Cc3ccccc3)cc2C(=O)N([C@@H](C)CO)C[C@@H]1C |
| 13[16.7 µM] | C[C@H]1CN([C@@H](C)CO)C(=O)c2cc(NS(=O)(=O)c3cn(C)cn3)ccc2O[C@@H]1CN(C)S(=O)(=O)c1cn(C)cn1 |
| -18 | CCN(CCOC(=O)Nc1ccc(Cl)cc1)C(=O)Nc1ccc(Cl)cc1 |
| -3[16.7 µM] | COc1cccc(-c2cccc(-c3nc(C(=O)NCCCN4CCOCC4)cc4c3[C@@H](CCO)N(S(=O)C(C)(C)C)C4)c2)c1 (stereo not given in full) |
| 14[16.7 µM] | COC(=O)C[C@H]1C=C[C@@H](NC(=O)Nc2ccc(C(F)(F)F)cc2)[C@@H](CO)O1 |
| 11 | O=S1(=O)N[C@@H](Cc2ccccc2)COc2cccc(NCCCN3CCOCC3)c21 |
| u | COC(=O)[C@]12C[C@H](CC(=O)N3CCOCC3)C(=O)N(Cc3ccccc3)C1=C[C@H](C(C)(C)C)O[C@@H]2C |
| 11[16.7 µM] | CO[C@H]1CN(C)C(=O)c2cc(NC(=O)Nc3cccc(Cl)c3)ccc2OC[C@@H](C)NC[C@@H]1C |
| 10[16.7 µM] | COc1cccc(-c2cccc(-c3nc(C(=O)N(C)C)cc4c3[C@H](CCO)N([S@@](=O)C(C)(C)C)C4)c2)c1 |

Part of the list above in another layout:
O=S1(=O)N[C@@H](Cc2ccccc2)COc2cccc(NCCCN3CCOCC3)c21
  HIV Env fusion = 11

COC(=O)[C@]12C[C@H](CC(=O)N3CCOCC3)C(=O)N(Cc3ccccc3)C1=C[C@H](C(C)(C)C)O[C@@H]2C
  HIV Env fusion = u

CO[C@H]1CN(C)C(=O)c2cc(NC(=O)Nc3cccc(Cl)c3)ccc2OC[C@@H](C)NC[C@@H]1C
  HIV Env fusion = 11[16.7 µM]

COc1cccc(-c2cccc(-c3nc(C(=O)N(C)C)cc4c3[C@H](CCO)N([S@@](=O)C(C)(C)C)C4)c2)c1
  HIV Env fusion = 10[16.7 µM]

(more compounds)
| HIV Env fusion | compound |
| --- | --- |
| -6[16.7 µM] | O=C(C[C@H]1CC[C@H]2[C@@H](COC[C@H](O)CN2Cc2cccc(-c3ccncc3)c2)O1)N1CCOCC1 |
| 10[16.7 µM] | CO[C@H]1CN(C)C(=O)c2ccc(NC(=O)c3cnccn3)cc2OC[C@@H](C)N(C)C[C@@H]1C |
| 31[16.7 µM] | CN1CCN(C(=O)[C@@H]2[C@@H](CO)[C@@H]3Cn4c(ccc(/C=C/c5ccccc5)c4=O)[C@@H]3N2CC2CC2)CC1 |
| -3[16.7 µM] | CC=Cc1ccc2n(c1=O)C[C@@H]1[C@@H](CO)[C@H](C(=O)N(C)C)[C@H]2N1C(=O)c1ccc(F)cc1 (mixture of isomers) |
| 30[16.7 µM] | C[C@H](CO)N1C[C@H](C)[C@@H](CN(C)S(=O)(=O)c2ccc(Cl)cc2)OCCCC[C@H](C)Oc2ccc(N(C)C)cc2C1=O |
| 18[16.7 µM] | COc1ccc(NC(=O)Nc2ccc3c(c2)[C@@H]2C[C@H](CC(=O)NCCc4ccccc4)O[C@H](CO)[C@@H]2O3)cc1 |
| -10[16.7 µM] | C[C@H](NC(=O)C[C@H]1C[C@@H]2c3cc(NC(=O)Cc4ccncc4)ccc3O[C@@H]2[C@@H](CO)O1)c1ccccc1 |
| 46[16.7 µM] | COc1cccc(S(=O)(=O)N(C)C[C@@H]2Oc3cc(C4=CCCCC4)ccc3S(=O)(=O)N([C@H](C)CO)C[C@H]2C)c1 |
| -2[16.7 µM] | CCCNC(=O)Nc1ccc2c(c1)OC[C@@H](C)N(Cc1cccnc1)C[C@@H](C)[C@@H](OC)CN(C)C2=O |
| 0[16.7 µM] | C[C@H]1CN([C@@H](C)CO)C(=O)c2ccccc2-c2ccccc2CO[C@H]1CN(C)S(=O)(=O)CC(F)(F)F |

3 entries already listed, sorted by molar mass, ascending.
| HIV Env fusion | compound |
| --- | --- |
| 0[16.7 µM] | C[C@H]1CN([C@@H](C)CO)C(=O)c2ccccc2-c2ccccc2CO[C@H]1CN(C)S(=O)(=O)CC(F)(F)F |
| 18[16.7 µM] | COc1ccc(NC(=O)Nc2ccc3c(c2)[C@@H]2C[C@H](CC(=O)NCCc4ccccc4)O[C@H](CO)[C@@H]2O3)cc1 |
| 46[16.7 µM] | COc1cccc(S(=O)(=O)N(C)C[C@@H]2Oc3cc(C4=CCCCC4)ccc3S(=O)(=O)N([C@H](C)CO)C[C@H]2C)c1 |

(further entries)
| HIV Env fusion | compound |
| --- | --- |
| 3[16.7 µM] | C[C@H](CO)N1C[C@H](C)[C@@H](CN(C)Cc2cccc(O)c2)OCc2cn(nn2)CCCC1=O |
| -6[16.7 µM] | C[C@H]1CN([C@@H](C)CO)C(=O)c2cc(C#CC3CC3)cnc2O[C@H]1CN(C)C(=O)c1ccncc1 |
| -42[16.7 µM] | C[C@@H]1CCCCO[C@H](CN(C)CC2CC2)[C@H](C)CN([C@@H](C)CO)C(=O)c2cc(NC(=O)CCC(F)(F)F)ccc2O1 |
| 1[16.7 µM] | O=C(N[C@@H]1C=C[C@@H](CC(=O)N2CCN(c3ccccc3)CC2)O[C@H]1CO)c1ccncc1 |
| -13[16.7 µM] | CCNC(=O)C[C@H]1CC[C@H]2[C@@H](COC[C@H](O)CN2C(=O)c2ccccn2)O1 |
| -19 | C#CCN(Cc1cccc(F)c1)C(=O)c1nnc2c3ccccc3n(S(=O)(=O)c3ccc(C)cc3)c2n1 |
| 9[16.7 µM] | C[C@H](CO)N1C[C@H](C)[C@@H](CN(C)Cc2ccc(-c3ccccc3)cc2)Oc2c(cccc2N(C)C)C1=O |
| 35 | COC(=O)C1=C(C)N(C)C(=NCc2cccc(C(F)(F)F)c2)NC1c1ccc(Cl)cc1 (stereo not given) |
| -17 | CC(C)CC(NC(=O)OCc1ccccc1)C(=O)NCC(=O)NCC(=O)OCc1ccccc1 (stereo not given) |
| -12 | COC(=O)[C@]12C[C@H](CC(=O)NCc3cccc4ccccc34)C(=O)N(Cc3ccccc3)C1=C[C@H](C(C)C)O[C@@H]2C1CC1 |
| -5[16.7 µM] | C[C@H]1CCCCO[C@H](CN(C)Cc2ccncc2)[C@@H](C)CN([C@@H](C)CO)C(=O)c2cc(NC(=O)Nc3ccccc3)ccc2O1 |
| -1[16.7 µM] | Cc1noc(C)c1S(=O)(=O)Nc1ccc2c(c1)C(=O)N([C@H](C)CO)C[C@H](C)[C@H](CN(C)C(=O)Nc1ccc(F)cc1)O2 |
| 11[16.7 µM] | O=C(C[C@H]1C[C@@H]2c3cc(NC(=O)C4CCC4)ccc3O[C@@H]2[C@@H](CO)O1)NCc1cccc(F)c1 |
| -38[16.7 µM] | COc1ccccc1-c1ccc2c(c1)[C@H]1[C@H](CCN1S(=O)(=O)c1cccc(C)c1)[C@H](CO)N2 |
| 3[16.7 µM] | COc1ccc(CN2CC3(CN(C(C)=O)C3)c3c([nH]c4cc(OC)ccc34)[C@@H]2CO)cc1 |
| -3[16.7 µM] | CO[C@@H]1CN(C)C(=O)c2ccc(NC(C)=O)cc2OC[C@H](C)N(Cc2ccccc2F)C[C@H]1C |
| 76* | COC(=O)[C@]12C[C@H](CC(=O)NCc3cccs3)C(=O)N(CCC3=CCCCC3)C1=C[C@H](C(C)(C)C)O[C@@H]2C |
| -20[16.7 µM] | COc1ccc(NC(=O)N(C)C[C@@H]2OCCCC[C@@H](C)Oc3ccc(N(C)C)cc3C(=O)N([C@H](C)CO)C[C@H]2C)cc1 |
| 4[16.7 µM] | COc1ccc2c3c([nH]c2c1)[C@H](CO)N(C(=O)Nc1cccc(F)c1)CC31CN(CC2CCOCC2)C1 |

Screening results deposited in PubChem BioAssay by Broad Institute.
